# Screens from PubChem.
# Bead autofluor = flagged as autofluorescent in microsphere protease counterscreen | compound autofluorescence counterscreen, microsphere flow cytometry; active compounds read high | fluorescence intensity (no concentration beside the values) | actives 3.1% (n = 360,000) | AID 624483;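 active means at least 3 SD above the mean of all compounds, about 16000 in these data; inconclusive means too few beads counted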;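 further: 100 nL of 1 mM stock went into each well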
# Mtb hypoxia rep = inhibitors of hypoxia-regulated fluorescent reporter in Mycobacterium tuberculosis; M. tuberculosis hypoxia-regulated fluorescent reporter, fluorescence; fluorescence inhibition, % (concentration not given with the values); actives 0.1% (n = 300,000); AID 1159583;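 active means 35 to 45% if threefold the growth effect, above 45% if 1.5-fold the growth effect; inactive means the rest, general growth blockers included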;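 further: wells of about 50 µL received 100 nL stock; 0% = vehicle wells and 100% = reference inhibitor wells; whole bacteria with a GFP reporter of the hypoxia response; strong numbers were not always called active; many hits fall short of the cut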
# ugtP null kill = kills S. aureus RN4220 lacking UgtP; growth inhibition, % (test concentration not listed); actives 0.54% (n = 330,000); S. aureus RN4220 ugtP deletion, OD600 growth, 16 h; some inactives read as strong as hits;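 active means z-score under -3 and OD600 up to 0.15 on both plates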;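 further: plate controls were untreated wells for no effect and antibiotic for full effect; wells of about 80 µL received 100 nL stock; the first replicate is given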
# PrP UTR inh = inhibition of PrP 5' UTR reporter expression; actives 0.35% (n = 340,000); AID 488862; cell-based PrP 5' UTR mRNA reporter, plate reader; inhibition, % (test concentration not listed);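 active means every replicate at 50% or more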;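 further: 0 = median of the neutral control wells; tested in H4 reporter cells; numbers are from one replicate; inactives centre near -14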
# BJeLR lethal = kills HRASV12-expressing BJeLR cells; BJeLR (HRASV12) viability, CellTiter-Glo ATP luminescence, 48 h; reference of the scale not given here; inhibition, % (test concentration not listed); actives 0.17% (n = 300,000); AID 1554;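 active means replicate mean above 50%; inconclusive means above 50% but judged a plate artefact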;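 further: 50 nL library stock added to about 25 µL; numbers are from one replicate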
# Sa RN4220 lethal = kills Staphylococcus aureus RN4220. S. aureus RN4220 growth, OD600, 16 h. actives 0.33% (n = 330,000). inhibition, % (test concentration not listed);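 active means z-score of -3 or lower and OD600 up to 0.18 on both plates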;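 further: plate controls were untreated cells for no effect and reference antibiotic for full effect; stock transfer was 100 nL into about 80 µL; one replicate is shown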
# Mtb hypoxia rep growth = second read-out of Mtb hypoxia rep, no call of its own (marks repeat the call); growth inhibition, %; measured here: M. tuberculosis growth (absorbance);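 0% = vehicle and 100% = reference antibiotic; read after six days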
# * hit, by the source's call; ? = inconclusive; nt = not tested or not shown. No enrichment for hits (roughly 4% active in at least one column).
SMILES,Bead autofluor,Mtb hypoxia rep,Mtb hypoxia rep growth,ugtP null kill,PrP UTR inh,BJeLR lethal,Sa RN4220 lethal
CC(C(=O)N1CCN(C(=O)OC(C)(C)C)CC1)n1cc(CCCN=C(NC(=O)OC(C)(C)C)NC(=O)OC(C)(C)C)nn1 (stereo not given),nt,12,9,2,nt,nt,4.6
O=C(c1ccc(C(F)(F)F)cc1)n1ccc(-c2cccs2)n1,5187,0,3,6,-11,4,1.7
CCOc1ccc(N(CC(=O)NC2CCCC2)S(=O)(=O)c2c(C)noc2C)cc1,4077,nt,nt,8,4,-3,4.1
CCOc1ccc(N(C(=O)c2cc3ccccc3oc2=O)C2C=CS(=O)(=O)C2)cc1 (stereo not given),3326,-3,3,6,-4,15,6.8
Cc1cc(SCC(=O)OCC(=O)N(C)C2CCS(=O)(=O)C2)c(C)cc1Br (stereo not given),6427,-1,-4,5,-17,-1,4.7
COc1cc(NC(=O)c2cc3nc(C)cc(C)n3n2)c(OC)cc1Cl,2661,nt,nt,-3,-53,-7,0.3
Oc1ccc(Cl)cc1C=Nc1ccc2c3c(cccc13)CC2,8194,4,2,-4,-57,1,10
O=C1C2C3C=CC(C4CC34)C2C(=O)N1Cc1ccco1 (stereo not given),1988,-2,-13,5,-17,-1,0.6
COc1cc(Cl)c(C)cc1NC(=O)COc1cc(C)nc(C(C)C)n1,7192,4,1,4,-2,-2,3.4
CCNC(=O)CSc1nnc(-c2cccc(S(=O)(=O)N3CCOCC3)c2)o1,nt,2,-2,0,-4,nt,-3.0
CCC(C)(C(=O)NC1CCCCC1)N(C(=O)C1CCC(=O)N1)c1ccccc1 (stereo not given),9950,13,10,13,-27,-5,-1.8
N#CCSc1nc2ccccc2c(=O)n1CCC(=O)NCCc1ccccc1,14631,13,1,1,-8,4,2.2
CN(C(=O)c1ccc(-c2ccccc2)cc1)C1CCCCC1,7336,14,10,7,nt,-5,3.3
O=[N+]([O-])c1ccc(-c2csc(Nc3ccccc3)[n+]2Cc2ccccc2)cc1,9675,-1,5,5,-8,7,-6.7
Cc1ccccc1C(=O)N1CCCC(N2CCN(Cc3ccc4c(c3)OCO4)CC2)C1 (stereo not given),?,4,9,6,-19,-1,-0.2
CCN1CCN(C(CNS(=O)(=O)c2ccc(C)cc2)c2cccnc2)CC1 (stereo not given),4358,0,0,5,1,1,0.6
C=C(C)[C@@H]1CCC2(C(=O)O)CC[C@]3(C)[C@H](CC[C@@H]4[C@@]5(C)CCC(=O)C(C)(C)[C@@H]5CC[C@]43C)[C@@H]12 (stereo not given in full),4130,nt,nt,nt,-19,7,nt
C#CCOCCOCCOCCNc1nc(N2CCN(C(=O)C(Cc3cc4ccccc4[nH]3)n3cc(C(N)CC(C)C)nn3)CC2)nc(N2CCN(C(=O)C(CCC(=O)O)n3cc(C(N)C(C)CC)nn3)CC2)n1 (stereo not given),nt,-1,6,4,nt,nt,2.6
CC(=O)c1ccc(S(=O)(=O)NCC(=O)NC(c2nc3ccccc3[nH]2)C(C)C)cc1 (stereo not given),2993,1,-4,2,-28,nt,3.1
O=C(O)c1cc(-c2ccc(/C=C3\NC(=O)N(c4ccccc4)C3=O)o2)ccc1Cl,5043,18,16,7,-31,8,4.3
O=C(CNCCO)Nc1ccc(F)c(Cl)c1,4159,5,13,2,2,-8,1.5
CCOC(=O)C(C)CC(C)C(=O)N1CCOCCN(C(=O)C(C)CC(C)C(=O)OCC)CCOCC1 (stereo not given),?,3,4,-1,-15,2,4.9
CCOC(=O)c1c(C)[nH]c(C(=O)N2CCCC(C(=O)c3ccccc3OC)C2)c1C (stereo not given),4620,4,7,5,-8,1,2.7
CCOC(=O)c1ccc(NC(=O)CSc2nnc(CCc3ccc(C)o3)n2-c2ccccc2)cc1,?,-1,1,-25,5,-5,-4.2
COc1cccc(NC(C)(C)c2nnnn2-c2c(C)cccc2C)c1,4018,nt,nt,nt,-11,0,nt
Cc1ccccc1Nc1nnc(SCC(=O)NC2CCCc3ccccc32)s1 (stereo not given),10766,8,4,4,-22,1,-1.3
Cc1ccc(C)n1-n1cnc2sc3c(c2c1=O)CCCCC3,3328,nt,nt,-3,1,17,6.8
C=CCn1c(N)c(C(=O)OC(C)(C)C)c2nc3ccccc3nc21,4088,nt,nt,nt,-2,6,nt
O=C(C1CC1)N1c2ccccc2Sc2ccccc21,3929,12,6,19,-21,4,4.9
O=C(COC(=O)CCC(=O)c1ccc(Cl)cc1)NCc1ccc(F)cc1,3451,12,7,-3,-25,nt,4.9
CCOC(=O)c1c(C)nc(C)c(C(=O)OCC)c1-c1ccco1,4268,16,15,13,-23,6,3.2
CC(Oc1ccc2ccccc2c1)C(=O)NNC(=O)Nc1ccccc1 (stereo not given),6081,4,14,-4,4,9,1.4
COC(=O)c1cc(Cl)c(NC(=O)C(C)C)cc1OC,4569,-1,3,13,-8,3,2.6
O=C(N=Nc1c(O)[nH]c2ccc(F)cc12)C1COc2ccccc2O1 (stereo not given),4904,7,-9,0,-11,2,3.9
Nc1cc(Cl)ccc1C(=O)OCC(=O)N1CCCCCC1,3695,6,14,2,-37,nt,4.0
Cc1nc2c(-c3ccc(F)cc3)c(C)nn2c(C)c1CCC(=O)Nc1ccccc1F,4607,6,1,16,-13,19,0.1
Cc1ncc(C[n+]2csc(CCOC(=O)CC34CC5CC(CC(C5)C3)C4)c2C)c(N)n1,2473,-4,7,-4,-9,-2,-0.8
O=C1C(=O)N(O)C2CCCCC2N1O (stereo not given),2087,8,9,-4,-10,-14,0.7
COc1ccccc1CNC(=O)CSc1ccc(-c2cccs2)nn1,4287,nt,nt,nt,6,-3,nt
O=[N+]([O-])c1ccccc1NN=Cc1ccccc1Cl,nt,21,5,-2,nt,nt,11
Cc1nc2ccc(Cl)cc2c(-c2ccccc2)c1C(=O)N(C)C,4077,0,0,12,-16,3,3.5
CN(C(=O)c1ccnn1C)C1CCCN(Cc2ccccc2F)C1 (stereo not given),5384,3,3,0,-29,4,0.8
COc1ccccc1NC(=S)N1CC(C)OC(C)C1 (stereo not given),1970,-4,-4,14,-13,5,6.3
Cc1ccc(C(C)C)c(OCc2ccc(-c3nnco3)cc2)c1,3998,nt,nt,11,-14,-7,5.2
COc1cccc(CNC(=O)COC(=O)c2cccc(S(=O)(=O)N3CCCC3)c2)c1,5268,6,4,1,-24,nt,3.6

# Entries of single compounds, looked up by structure. Screens in order: Bead autofluor, Mtb hypoxia rep, Mtb hypoxia rep growth, ugtP null kill, PrP UTR inh, BJeLR lethal, Sa RN4220 lethal
# Shown for Cc1nc2ccc(Cl)cc2c(-c2ccccc2)c1C(=O)N(C)C = 4077, 0, 0, 12, -16, 3, 3.5
# Shown for COc1ccccc1NC(=S)N1CC(C)OC(C)C1 (stereo not given) = 1970, -4, -4, 14, -13, 5, 6.3
# Shown for COc1cccc(CNC(=O)COC(=O)c2cccc(S(=O)(=O)N3CCCC3)c2)c1 = 5268, 6, 4, 1, -24, nt, 3.6
# Shown for Cc1nc2c(-c3ccc(F)cc3)c(C)nn2c(C)c1CCC(=O)Nc1ccccc1F = 4607, 6, 1, 16, -13, 19, 0.1
# Shown for Nc1cc(Cl)ccc1C(=O)OCC(=O)N1CCCCCC1 = 3695, 6, 14, 2, -37, nt, 4.0

# Additional compounds follow.
SMILES,Bead autofluor,Mtb hypoxia rep,Mtb hypoxia rep growth,ugtP null kill,PrP UTR inh,BJeLR lethal,Sa RN4220 lethal
C/C=C/c1ccc(OCC(O)CN2CCCCC2CC)c(OC)c1 (stereo not given),5021,4,10,-1,-13,-2,4.5
Cc1nnsc1SCCNC(=O)c1ccc(F)cc1,2296,nt,nt,2,-16,-1,2.5
Cc1ccc(S(=O)(=O)[N-]c2nc3ccccc3nc2-n2cc[n+](CCC(C)C)c2)cc1,6091,8,14,-10,-11,6,3.3
CCOc1ccccc1N1CCN(C(=O)c2cc(-c3cc(OC)ccc3OC)nc3ccccc23)CC1,5886,-3,-2,-5,-1,-8,13
O=C(Nc1ccc2c(c1)nc1n2CCOC1)c1ccco1,4105,-3,8,1,-89,-3,2.6
Cc1ccc(C)c(NC(=O)COC(=O)CCNC(=O)c2ccco2)c1,4359,7,7,3,3,nt,3.4
Cc1nc(-c2ccccc2)sc1C(=O)Nc1ccccc1F,3479,3,5,4,-38,4,2.8
O=S(=O)(Nc1nc2ccccc2nc1Cl)c1cccc(C(F)(F)F)c1,3896,-3,3,9,-31,-6,27
O=C(CCCSc1nc2ccccc2[nH]1)NCc1ccccc1,2134,-1,4,10,-18,10,5.9
COc1ccc(C(CNC(=O)C(C)c2ccc3cc(OC)ccc3c2)N(C)C)cc1 (stereo not given),2918,14,0,5,-19,3,4.2
O=C(O)CSCCc1ccccn1,4796,nt,nt,-5,-24,5,-3.3
COCCn1c(=O)[nH]c(=O)c2c1nc(-c1cc(Br)c3c(c1)OCO3)n2Cc1ccccc1,4683,0,12,7,-7,-9,12
Cc1cc(C(=O)N2CCCC(N3CCN(c4ccc(F)cc4)CC3)C2)c(C)o1 (stereo not given),4148,2,-7,6,-7,-1,1.6
CCC1C(=O)NCCN1C(=O)c1ccc2nc(Cc3cccc(Cl)c3)oc2c1 (stereo not given),6221,4,-2,2,-18,3,-1.4
COc1ccc(OCC(=O)Nc2ccc(N3CCOCC3)c(Cl)c2)cc1,4726,nt,nt,3,-7,3,2.6
Cc1ccc(NC(=O)Nc2ccc(F)cc2)nc1,4090,9,5,-12,-147,0,1.9
COc1ccc(C2C3C(=O)N(C(C)(C)C)C(=O)C3[C@]3(Cc4ccc(Cl)cc4)C(=O)N(c4ccc(OC)cc4)C(=O)N23)cc1 (stereo not given in full),nt,2,5,-13,nt,nt,3.3
O=C(C(Br)=Cc1ccccc1)c1ccccc1,3059,8,25,12,-33,nt,13
CC(=O)Nc1ccc(NC(=O)COc2ccccc2C(=O)Nc2cccc(Cl)c2Cl)cc1,2211,6,-1,-1,-11,-8,4.0
O=C(CNC(=O)Cc1ccccc1)NCC(=O)OCC(=O)c1ccccc1Cl,10404,-7,0,1,5,2,2.4
CC(C)(C)C(=O)Nc1nc2ccc(S(C)(=O)=O)cc2s1,2570,6,0,0,-43,2,4.1
COc1ccc(CNC(=O)C2CCN(c3nc(OC)nc(OC)n3)CC2)cc1,13241,8,12,5,-11,1,3.1
Cc1ccc(Nc2nc(Cl)nc(N(C)C#N)n2)cc1,3170,5,6,-7,-10,-5,2.8
O=C(Cn1cnc2c(nnn2-c2ccc(F)cc2)c1=O)NCc1ccco1,8028,-1,4,2,-10,-1,-3.0
CC(C)c1nnc(NC(=O)CCC(=O)N2CCC(Cc3ccccc3)CC2)s1,5456,13,7,1,-13,-7,-0.1
CCCCN1CCNC[C@H]1Cc1ccc(O)cc1,3183,nt,nt,nt,-22,-12,nt
N#C/C(=C(/O)c1ccccc1F)c1nc2cc(C(F)(F)F)ccc2s1,5714,6,15,10,-28,nt,30
CCC(=O)c1ccc(N2CCN(C(=O)c3ccc(Br)cc3)CC2)c(F)c1,7515,11,8,24,-20,-10,13
O=C1/C(=C\c2ccc(O)cc2)SC(=S)N1/N=C/c1ccc(O)cc1,4169,nt,nt,nt,-28,12,nt
O=C(c1cccnc1)N1CCN(Cc2ccccc2Br)CC1,3268,7,11,6,-17,-3,5.4
CC(C)(C)c1ccc(C(=O)NCC(=O)OCc2ccc([N+](=O)[O-])cc2)cc1,2596,8,0,54,-7,-2,4.6
Cc1cccn2c(CN(C)CC3Cc4ccccc4O3)c(C(=O)N3CCCCC3)nc12 (stereo not given),3861,10,-6,0,-19,-24,-1.0
NS(=O)(=O)c1ccc(NN=C2CCN(Cc3ccccc3)CC2)c([N+](=O)[O-])c1,4262,15,3,1,-7,3,9.4
COc1ccc(S(=O)(=O)N2CCOCC2)cc1C(=O)N(C)Cc1ccccc1F,?,6,4,6,-23,nt,-0.6
Cc1cccn2c(=O)c3cc(C#N)c(=N)n(CCCN4CCOCC4)c3nc12,3249,nt,nt,nt,-15,0,nt
COc1c(Cl)ccc(Cl)c1C(=O)NC(=S)N1CCOCC1,3376,-1,18,5,-22,0,3.8
O=C(CCSc1ccccn1)Nc1ccc(Br)cc1,2146,4,-9,3,-104,6,4.8
N#Cc1ncc(Cl)c2ccccc12,4490,6,4,14,-10,3,5.9
Cc1ccc(C(=O)O/N=C(\N)c2nonc2N)cc1,2112,nt,nt,nt,-20,-8,nt
CCN(CC)c1nc(Nc2ccc(Cl)cc2)nc(OCC#N)n1,3046,nt,nt,-4,-6,0,-3.6
